# AmpC inh no det = Promiscuous and Specific Inhibitors of AmpC Beta-Lactamase (assay without detergent); Potency, µM (top dose mostly 28.7 µM), for the others: at the highest dose activity change, negative = inhibition; AmpC nitrocefin hydrolysis, absorbance 480 nm, no detergent; potencies from a single point are estimates; actives 1.8% (n = 71,000); active = falling curve, for most hits resting on a single point; inconclusive = weak or doubtful change; inactive = flat or rising curve; further: % of control where 0% means no effect; about half of the hits show no inhibition at the top dose; a quarter of the inactives give rising signals
# Target sequence (P00811 whole entry, looked up): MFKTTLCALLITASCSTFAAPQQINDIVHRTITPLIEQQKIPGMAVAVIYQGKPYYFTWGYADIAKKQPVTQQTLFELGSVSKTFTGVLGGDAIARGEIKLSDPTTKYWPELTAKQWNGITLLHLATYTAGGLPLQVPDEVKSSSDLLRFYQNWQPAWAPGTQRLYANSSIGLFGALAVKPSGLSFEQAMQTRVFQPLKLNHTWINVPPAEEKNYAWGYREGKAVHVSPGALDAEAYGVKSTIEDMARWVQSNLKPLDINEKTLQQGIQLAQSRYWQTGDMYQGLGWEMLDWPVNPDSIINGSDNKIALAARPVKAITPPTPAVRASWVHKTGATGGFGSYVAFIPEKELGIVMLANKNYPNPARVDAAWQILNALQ
#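 Enzyme, pH 7.0 phosphate. Compound titrations were pre-incubated with AmpC for 15 min at room temperature before nitrocefin (stock 800 uM) addition; product formation was recorded at 480 nm every 20 s for 4 min.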
# Active calls of the source: *; ? = inconclusive; & = joins results of further samples; [ ] = remark or other dose. Potency means the concentration at half of the fitted maximal effect. The list is partial (hit frequency here may not be typical).
SMILES,AmpC inh no det
CC1CCc2c(C(=O)N3CCN(S(=O)(=O)c4cccs4)CC3)csc2C1 (stereo not drawn),31.8%
Cc1cc(C(=O)NCC2CCCO2)n(-c2ccccc2)n1 (stereo not drawn),-7.2%
CCOC(=O)Cn1c(=O)n(CC(=O)OCC)c2ccccc21,-7.0%
CC(OC(=O)CN(C)S(=O)(=O)c1ccc(Cl)cc1)C(=O)Nc1ccc(N2CCOCC2)cc1 (stereo not drawn),64.9%
O=C(NC1CCCCC1)N1CCCCCCC1,2.0%
Cc1ccc(F)c(NC(=O)C2CCCCC2C(=O)O)c1 (stereo not drawn),6.0%
CC1(C)[C@@H]2CC[C@]1(CC(=O)O)[C@H](Cl)C2,0.7%[5.75 µM]
COc1ccc(C(=O)Nc2nnc(Cc3cccs3)s2)cc1OC,5.3%
Cc1cccn2cc(CCNC(=O)c3ccc(Br)o3)nc12,1.1%
Cn1c(=N)c(S(=O)(=O)c2ccc(Cl)cc2)cc2c(=O)n3ccccc3nc21,67.9%
COc1cc(NC(=O)c2nnn(Cc3ccc(SC)cc3)c2N)cc(OC)c1,3.98µM*[single pt active]
O=C(CSc1nc(Nc2ccccc2)nc(N2CCOCC2)n1)N1CCc2ccccc21,38.6%
O=C(CSc1nnc(-c2cccnc2)n1Cc1ccco1)c1ccc(Br)cc1,132.7%
COC(=O)N1[C@H](C)C=C[C@]1(Cc1ccccc1)C(=O)O,-6.5%
CCN(CC)S(=O)(=O)c1cccc(-c2nnc(SCc3ncc(-c4ccccc4)o3)n2C)c1,100.3%
COc1ccccc1NC(=O)CN1C(=O)NC(CC(C)C)C1=O (stereo not drawn),13.3%
COC(=O)c1ccc(NC2(C#N)C(=O)Nc3ccccc32)cc1 (stereo not drawn),-12.2%
COc1ccc(-n2c3c(cc(C(=O)NC4CCSC4=O)c2=O)C(=O)CC(C)(C)C3)cc1 (stereo not drawn),62.8%
O=C(C1CCN(S(=O)(=O)c2cccc3cccnc23)CC1)N1CCN(C2CCCCC2)CC1,103.1%
CCOc1ccc(C(=O)NC2CCN(C(=O)NCc3ccccc3)CC2)cc1,-3.9%
Cc1noc(C)c1C(=O)N1CCC[C@@]2(CCN(C(c3ccccc3)c3ccccc3)C2)C1,-3.5%
Cc1onc(-c2ccccc2)c1C(=O)Nc1ccc(S(=O)(=O)N2CCCCC2)cc1,6.2%
COC1(OC)N=C(N)C2(C#N)C(c3cccc(Oc4ccccc4)c3)C12C#N (stereo not drawn),64.8%
CN(C)c1ccc(/C=N/n2ncc3ccccc32)cc1,-12.0%
COC(=O)c1ccc(NC(=O)CSc2n[nH]c(-c3ccncc3)n2)cc1,-1.2%
Cn1c(NC(=O)c2ccc3c(c2)OCO3)cc(=O)n(C)c1=O,3.7%
COc1ccc(N(C(=O)C(C)C)S(=O)(=O)c2ccc3c(c2)n(C)c(=O)n3C)cc1,85.8%
COc1ccc(-c2nn(C)c(=O)c3ccccc23)cc1CNC(=O)CN1CCOCC1,47.1%
CCCCNS(=O)(=O)c1ccc2nc(SCC(=O)Nc3sccc3C#N)[nH]c2c1,-20.5%
Cn1c(=O)c(CCc2ccccc2)nc2cnc(Nc3ccccc3)nc21,5.6%
COc1ccc(OC)c(Nc2ncnc3c2cnn3-c2cccc(C)c2)c1,58.3%
COc1ccccc1N1CCN(C(=O)Cn2nc(C(F)(F)F)c3c2CCC3)CC1,116.1%
CC(=O)N(Cc1cccs1)C1CCOC(C)(C)C1 (stereo not drawn),-0.2%
CC(C)[C@H](NC(=O)NC1CCCc2ccccc21)C(=O)O (stereo partly drawn),1.2%
Nc1nc(SCc2ccc(Cl)cc2)ns1,-13.5%
COc1ccc2[nH]c(C(=O)O)c(NS(=O)(=O)c3ccc(Cl)s3)c2c1,-18.0%
CC(C)OC(=O)C1C2C=CC3(CN(CC4CCCO4)C(=O)C13)O2 (stereo not drawn),1.6%
COc1ccc(S(=O)(=O)Nc2ccccc2C(=O)NCc2ccco2)cc1,-1.7%
O=c1cc(Nc2ccc3c(c2)OCO3)[nH]c(=O)n1-c1ccc(Br)cc1,-12.3%
OCC(C#CCN1CCCCC1)NCc1ccccc1 (stereo not drawn),-8.9%
CCOC(=O)C(C)Oc1ccc(=O)n(-c2ccccc2)n1 (stereo not drawn),3.9%
CCn1nnnc1SCC(=O)c1ccc(NC(C)=O)cc1,-5.4%
COc1ccccc1C1/C(=C(\O)c2c(C)nc3c(C)cccn23)C(=O)C(=O)N1CCCN(C)C (stereo not drawn),3.5%
O=C(Nc1cccc(NS(=O)(=O)c2ccc(S(=O)(=O)NC3CC3)cc2)c1)c1ccccn1,?
Cc1cc(NC(=O)CSc2ccc3nnc(-c4cccc(F)c4)n3n2)no1,-21.5%
O=C(CCCN1CCC2(CC1)C(=O)N(CCc1ccc(N=C=S)cc1)CN2c1ccccc1)c1ccc(F)cc1,30.7%
C[C@@]12C=CC(=O)C=C1CC[C@@H]1C2=CC[C@]2(C)[C@@H]1CC[C@H]2C(=O)CN1CCN(c2cc(N3CCCC3)nc(N3CCCC3)n2)CC1,86.4%
CCc1nnc(SCc2ccc(OC(C)C)cc2)n1N,0.5%
Cc1ccc(OC[C@H](O)[C@H](C)NC(C)C)c2c1CCC2,28.1%&1.3%
Cc1cc(C(=O)Nc2nnc(C3CCCCC3)s2)no1,-4.8%
COCCNC(=O)[C@H](C)/C=C(\c1cccnc1)C(NC(=O)OCc1ccccc1)c1ccc(C(=O)OC)cc1 (stereo partly drawn),131.8%
CCc1nc(SCC(=O)N2CCN(C(=O)c3ccco3)CC2)c2c3c(sc2n1)CCCC3,110.7%
O=P(O)(CN1CCCCC1)CN1CCCCC1,2.2%
CCOC(=O)c1cn(CC)c2ccc(S(=O)(=O)N3CC(C)CC(C)C3)cc2c1=O (stereo not drawn),60.5%
Cc1ccc(N(CC(=O)Nc2ccc(F)c(Cl)c2)S(=O)(=O)c2c(C)noc2C)cc1,-7.7%
CN(Cc1ccco1)c1cc(-c2ccccc2Cl)ncn1,31.5%
CCOC(=O)N1CCN(C(=O)C2CCN(Cc3nc(-c4ccccc4C)oc3C)CC2)CC1,127.8%
CCOC(=O)N1CCC(N(CCCOC)C(=O)Nc2cccc(OC)c2)CC1,50.4%
COc1ccc(CCn2nnnc2C(C(C)C)N2CCN(c3ncccn3)CC2)cc1OC (stereo not drawn),108.2%
c1ccc(-c2cc(-c3cc(-c4ccccn4)[nH]n3)n[nH]2)nc1,7.5%[5.75 µM]
# Additional structures:
SMILES,AmpC inh no det
O=C(CCN1CCCCC1)NCC1OCCc2ccccc21 (stereo not drawn),-7.1%
CCCCn1c(=N)n(CC(O)COc2ccccc2)c2ccccc21 (stereo not drawn),-3.7%
O=C(Nn1cnnc1)C1Cc2ccccc2CN1S(=O)(=O)c1ccc(F)cc1 (stereo not drawn),10.2%
CCN(C(=O)c1c(OC)cccc1OC)c1nnc(-c2cccnc2)s1,71.4%
O=C1C(SCCO)=C(SCCO)C(=O)c2ccccc21,10.5%&-3.5%
COc1ccc(C(=O)C(c2ccccc2)N2CCOCC2)cc1 (stereo not drawn),27.0%
CCCN(CCC)[C@@H]1CCc2c(OC)cccc2[C@@H]1C,32.8%
CCN(CC)C(=O)Nc1cnc2ccccc2c1,-4.6%
O=C(c1[nH]o[n+](=O)c1C(=O)c1csc2ccccc12)c1csc2ccccc12,-11.0%[5.75 µM]
CCCCn1c(=O)n(CC(=O)Nc2c(CC)cccc2CC)c(=O)c2c1nc(CO)n2CCC,72.0%
CN(CC(=O)NCc1ccc(Cl)cc1)S(=O)(=O)c1cccc2nsnc12,14.9%
C[C@H]1CS(=O)(=O)CCN1/N=C\c1ccc([N+](=O)[O-])o1,0.8%[12.8 µM]
COC(=O)[C@H](C)NC(=O)Nc1ccc(OC(F)(F)F)cc1,7.1%
CCOC(=O)CSc1nc2ccccc2c(=O)n1C1CCCC1,-3.9%
CCCCOC(=O)C(C#N)c1nc2ccccc2nc1N1CCOCC1 (stereo not drawn),74.8%
CC(=O)ON1C(C)(C)CC(OC(=O)c2ccccc2)CC1(C)C,56.2%
Cc1ccc2oc(-c3ccc(NC(=O)c4cccnc4)cc3)nc2c1,48.8%
CCC(c1nnnn1Cc1ccccc1)N(Cc1ccco1)Cc1cc2cc(OC)ccc2[nH]c1=O (stereo not drawn),45.4%
OC(Cn1cncn1)c1ccc(Cl)cc1 (stereo not drawn),-3.5%
CCN(CC)S(=O)(=O)c1ccc(Cl)c(C(=O)Nc2nncs2)c1,-5.4%
CCOC(=O)c1ccc(NCc2ccc3c(c2)OCO3)cc1,-10.1%
CCOP(=S)(OCC)SCOC(=O)NCC(=O)OC,16.6%
N[C@@H](Cc1nn[nH]n1)C(=O)O,-11.9%[5.75 µM]
O=C(c1ccco1)N1CCCN(C(=O)c2ccco2)CC1,-1.6%
O=C(O)CSc1nnc(Cn2cnc3ccccc32)n1CCc1ccccc1,1.1%
O=C(COc1ccc(Cl)cc1)NC1CN2CCC1CC2 (stereo not drawn),-0.5%
O=C(c1ccco1)N1CCN(CC(O)Cn2c3ccccc3c3ccccc32)CC1 (stereo not drawn),166.0%
Cc1cc(C)cc(OCCCCCNCCO)c1,31.9%
COc1ccc(S(=O)(=O)Nc2cccc(Cl)c2)cc1OC,0.6%
CCOc1ccc2[nH]c(=O)c(CN(CCO)C(=O)c3ccc(Br)cc3)cc2c1,?
CN(C)c1nc2c(c(=O)n(C)c(=O)n2C)n1CC(=O)c1cccs1,-1.8%
O=C(COC(=O)c1ccco1)Nc1cccc(Br)c1,-7.1%
COCCN1C=C(C(=O)OC)C(c2cc(Br)c(OC)c(OC)c2)C(C(=O)OC)=C1,119.2%
O=C(Nn1c(=O)[nH]c2ccsc2c1=O)c1ccccc1,-6.7%
COCCN1C(=O)C(CC(=O)Nc2ccc(C(=O)O)cc2)SC1=Nc1ccccc1 (stereo not drawn),-13.5%
CCn1c(SCC(=O)Nc2ccc(S(=O)(=O)Nc3ccccn3)cc2)nnc1-c1ccncc1,13.1%
Cc1onc(-c2ccccc2Cl)c1C(=O)Nc1c(C)n(C)n(-c2ccccc2)c1=O,0.9%
CC(C)C(=O)Nc1cc2c(cc1C(=O)c1ccccc1)OCCO2,11.4%
Nc1nncn1C(=O)c1cc(Br)ccc1Cl,2.8%
CN1[C@H]2CC(OC(=O)[C@@H](CO)c3ccccc3)C[C@H]1[C@H]1O[C@H]12 (stereo partly drawn),-16.9%[12.8 µM]
Cc1cc(C)n(CC(=O)O)n1,-5.3%
CN1CCN(c2ncc3nc(-c4ccc(Cl)cc4)c(=O)n(C)c3n2)CC1,142.7%
CCOC(=O)Cn1c(=O)oc2cc(S(=O)(=O)N3CCc4ccccc43)ccc21,44.2%

# Among those listed so far, these have a halogen:
SMILES,AmpC inh no det
CC(OC(=O)CN(C)S(=O)(=O)c1ccc(Cl)cc1)C(=O)Nc1ccc(N2CCOCC2)cc1 (stereo not drawn),64.9%
Cc1ccc(F)c(NC(=O)C2CCCCC2C(=O)O)c1 (stereo not drawn),6.0%
CC1(C)[C@@H]2CC[C@]1(CC(=O)O)[C@H](Cl)C2,0.7%[5.75 µM]
Cc1cccn2cc(CCNC(=O)c3ccc(Br)o3)nc12,1.1%
Cn1c(=N)c(S(=O)(=O)c2ccc(Cl)cc2)cc2c(=O)n3ccccc3nc21,67.9%
O=C(CSc1nnc(-c2cccnc2)n1Cc1ccco1)c1ccc(Br)cc1,132.7%
COc1ccccc1N1CCN(C(=O)Cn2nc(C(F)(F)F)c3c2CCC3)CC1,116.1%
Nc1nc(SCc2ccc(Cl)cc2)ns1,-13.5%
COc1ccc2[nH]c(C(=O)O)c(NS(=O)(=O)c3ccc(Cl)s3)c2c1,-18.0%
O=c1cc(Nc2ccc3c(c2)OCO3)[nH]c(=O)n1-c1ccc(Br)cc1,-12.3%
Cc1cc(NC(=O)CSc2ccc3nnc(-c4cccc(F)c4)n3n2)no1,-21.5%
O=C(CCCN1CCC2(CC1)C(=O)N(CCc1ccc(N=C=S)cc1)CN2c1ccccc1)c1ccc(F)cc1,30.7%
Cc1ccc(N(CC(=O)Nc2ccc(F)c(Cl)c2)S(=O)(=O)c2c(C)noc2C)cc1,-7.7%
CN(Cc1ccco1)c1cc(-c2ccccc2Cl)ncn1,31.5%
O=C(Nn1cnnc1)C1Cc2ccccc2CN1S(=O)(=O)c1ccc(F)cc1 (stereo not drawn),10.2%
CN(CC(=O)NCc1ccc(Cl)cc1)S(=O)(=O)c1cccc2nsnc12,14.9%
COC(=O)[C@H](C)NC(=O)Nc1ccc(OC(F)(F)F)cc1,7.1%
OC(Cn1cncn1)c1ccc(Cl)cc1 (stereo not drawn),-3.5%
CCN(CC)S(=O)(=O)c1ccc(Cl)c(C(=O)Nc2nncs2)c1,-5.4%
O=C(COc1ccc(Cl)cc1)NC1CN2CCC1CC2 (stereo not drawn),-0.5%
COc1ccc(S(=O)(=O)Nc2cccc(Cl)c2)cc1OC,0.6%
CCOc1ccc2[nH]c(=O)c(CN(CCO)C(=O)c3ccc(Br)cc3)cc2c1,?
O=C(COC(=O)c1ccco1)Nc1cccc(Br)c1,-7.1%
COCCN1C=C(C(=O)OC)C(c2cc(Br)c(OC)c(OC)c2)C(C(=O)OC)=C1,119.2%
Cc1onc(-c2ccccc2Cl)c1C(=O)Nc1c(C)n(C)n(-c2ccccc2)c1=O,0.9%
Nc1nncn1C(=O)c1cc(Br)ccc1Cl,2.8%
CN1CCN(c2ncc3nc(-c4ccc(Cl)cc4)c(=O)n(C)c3n2)CC1,142.7%

# An excerpt from above in order of heavy-atom count, lowest first:
SMILES,AmpC inh no det
Nc1nncn1C(=O)c1cc(Br)ccc1Cl,2.8%
O=C(O)CSc1nnc(Cn2cnc3ccccc32)n1CCc1ccccc1,1.1%
Cc1onc(-c2ccccc2Cl)c1C(=O)Nc1c(C)n(C)n(-c2ccccc2)c1=O,0.9%
